PABP FP inh: blocks human PABP binding to poly(A) RNA; P11940; fluorescence polarization; inhibition, % at 35 µM; actives 1% (n = 290,000);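 active means 50% or more with normal probe brightness, or confirmed in later tests; inconclusive means above 50% with abnormal brightness, or retests that disagree; inactive means below 50% or failed in later tests; about a fifth of its hits are not listed in these tables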;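 further: calls also rest on retests at 20 µM and on dose response follow-up; controls were probe without protein and protein plus probe with vehicle; some compounds called inactive have numbers as strong as hits; many hits fall short of the cut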
Target sequence (P11940 whole entry, looked up): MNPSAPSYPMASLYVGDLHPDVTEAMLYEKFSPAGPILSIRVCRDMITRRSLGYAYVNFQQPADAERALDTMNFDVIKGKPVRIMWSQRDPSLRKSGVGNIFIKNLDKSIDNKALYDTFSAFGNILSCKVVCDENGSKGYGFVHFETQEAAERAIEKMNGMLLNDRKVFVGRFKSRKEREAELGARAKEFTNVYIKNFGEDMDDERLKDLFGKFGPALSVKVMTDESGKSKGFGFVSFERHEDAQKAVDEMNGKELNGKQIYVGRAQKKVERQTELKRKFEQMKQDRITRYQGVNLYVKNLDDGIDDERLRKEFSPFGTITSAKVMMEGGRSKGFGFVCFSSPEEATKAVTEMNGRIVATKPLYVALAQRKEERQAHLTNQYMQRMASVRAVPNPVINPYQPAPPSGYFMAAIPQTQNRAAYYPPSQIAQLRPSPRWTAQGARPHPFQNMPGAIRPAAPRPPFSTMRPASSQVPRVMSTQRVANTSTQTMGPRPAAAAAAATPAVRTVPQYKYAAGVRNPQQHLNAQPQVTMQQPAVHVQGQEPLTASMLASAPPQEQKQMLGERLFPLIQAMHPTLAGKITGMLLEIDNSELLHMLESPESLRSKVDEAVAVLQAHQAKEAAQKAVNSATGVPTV
eIF4H inh: inhibitors of RNA binding by human eIF4H. Q15056. eIF4H fluorescence polarization binding assay. inhibition, % at 35 µM. actives 0.94% (n = 290,000). AID 2012;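 active means 50% or more with normal probe brightness, or confirmed in later tests; inconclusive means above 50% with abnormal brightness, or retests that disagree; inactive means below 50% or failed in later tests; about a fifth of its hits are not listed in these tables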;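 further: calls also rest on retests at 20 µM and on dose response follow-up; 0% = protein and probe with vehicle and 100% = probe without protein; strong numbers were not always called active; many hits fall short of the cut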
Yeast UUG start: alters start codon recognition fidelity in yeast | S. cerevisiae UUG-firefly luciferase reporter, luminescence/redox ratio | activity score, % at 18.7 µM | actives 0.13% (n = 350,000) | AID 602363;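 active means replicate mean at a twofold rise or more, about +100% in these data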;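 further: firefly luciferase made from a UUG start codon reports start codon fidelity; reporter light over untreated wells divided by growth signal over untreated wells; some hits fall short of that in this replicate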
Env fusion inh: HIV envelope-mediated fusion inhibition; inhibition, % at 12.3 µM; AID 651610; HeLa-JRFL Env/CEM21 cell fusion, luciferase; actives 1.1% (n = 360,000);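 active means mean replicate inhibition score of at least 50 and every replicate individually at or above 50; inconclusive means only one of the two criteria met; inactive means mean below 50 and not all replicates reaching 50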;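 further: 0% = plate neutral controls and 100% = maraviroc near 300 nM; one replicate is shown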
Rce1 inh: yeast Ras-converting enzyme inhibition; Q03530; yeast membranes, quenched prenylated peptide cleavage fluorescence; calls only; actives 0.27% (n = 290,000); AID 2563;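 active means fall in fluorescence gain of 50% or more versus controls, with final raw signal at or below 3038400; inconclusive means same 50% fall but final raw signal above 3038400; inactive means fall in fluorescence gain under 50%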;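 further: plate controls were neutral control wells for no effect and wells lacking membranes for full effect; tested at 10 µM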
CSC inhib: cancer stem cell inhibition; cancer stem cell-like cells viability, luminescence; inhibition, % at 7.5 µM; actives 1.1% (n = 300,000);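 active means mean at 75% or more and at least half the replicates too; inconclusive means mean and replicates disagree; tested in HMLE shEcad cells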;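 further: 0% = median of negative and 100% = median of positive control wells; the first replicate is given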
MT1-MMP act inh: blocks activation of human MT1-MMP; GFP/RFP ratio change, % at 20 µM; HT1080 RFP-PRO-GFP cells, GFP/RFP ratio fluorescence, overnight; percent of plate control window, DMSO zero; AID 651647; actives 0.061% (n = 360,000); P50281;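 active means GFP/RFP ratio change of at least 30% with cell ATP level not reduced by more than half and red fluorescence within 50% of control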; further: strong numbers were not always called active
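Test system: HT1080 RFP-PRO-GFP cells; Benchmarks: DMSO and RFP-L50D-GFP cell wells; Timing: cells overnight before dosing, compound overnight, 37 °C, 5% CO2; Compound: one 20 µM compound dose with 1% DMSO; Read-out: GFP/RFP fluorescence ratio.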
MT1-MMP act inh RFP: recorded beside MT1-MMP act inh, whose call it bears; RFP signal change, %; measured here: RFP expression control read;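 0 = vehicle wells; hits needed this value within 50% of zero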
* marks the source's active call; other numbers are inactive results; i = inactive; u = inconclusive; x = not tested or not shown; + = active, no number; & = joins results of further samples; [ ] = dose if it differs, or a comment.

Value order – PABP FP inh	Env fusion inh	Rce1 inh	MT1-MMP act inh	CSC inhib	MT1-MMP act inh RFP	eIF4H inh	Yeast UUG start
> CCOc1cc(/C=C(\C#N)C(=O)Nc2cccc(C(=O)O)c2)cc(Br)c1OC(=O)c1ccc(OC)cc1
    14	4	i	x	17	x	3	-12
> O=C(c1cc2ccccc2cc1O)N1CCCC1
    -3	0	i	1	-16	1	-8	-14
> Cc1c(-c2ccccc2)n(O)c(-c2ccc(N(C)C)cc2)[n+]1[O-]
    x	-18	x	3	x	-3	x	-12
> NNC(=O)C1CC(O)CN1S(=O)(=O)c1ccc2ccccc2c1 (configuration not stated)
    x	0	x	2	-24	3	x	-7
> COc1cccc(NC(=O)CCNS(=O)(=O)c2cccc3nonc23)c1
    13	0	i	1	x	-1	3	-6
> COCCn1c(Cc2ccccc2)nnc1SCC(=O)Nc1cc(C)on1
    0	-10	i	-2	-15	-1	-18	1
> CC(=O)N1CCN(C(=O)CSc2cc(C)c(Br)cc2C)CC1
    1	3	i	-4	3	-6	-11	7
> COc1ccc(N2C(=S)NC3CS(=O)(=O)CC32)cc1 (configuration not stated)
    3	2	i	1	-23	5	-1	x
> CCN(Cc1nc2cc(Cl)ccc2c(=O)[nH]1)C(=O)C1CC(=O)N(c2cccc3ccccc23)C1 (configuration not stated)
    x	-17	x	-4	x	4	x	6
> COc1ccc(C(=O)CSc2ccccc2C(=O)O)cc1
    4	-45	i	2	-15	4	2	x
> CC1CCc2ccc(F)cc2N1S(=O)(=O)c1cccs1 (configuration not stated)
    4	37	i	-2	2	1	-1	-13
> Cc1cc(C)n(CCNc2nc3nonc3nc2N2CCCCC2)n1
    -1	-5	i	0	-27	-2	8	-7
> COc1ccc(NC(=O)CN(C)C(=O)CSc2ccc3c(c2)OCCO3)cc1
    -5	4	i	0	-4	0	-4	2
> Cc1cc(NC(=O)CCC(=O)N(Cc2ccco2)C(C(=O)NC2CCCC2)c2ccc(F)cc2)no1 (configuration not stated)
    5	37	i	-2	x	0	5	-1
> CCn1c(CNC(=O)Cc2ccc(OC)cc2)nnc1SCC(=O)Nc1nccs1
    -8	x	i	2	-1	-2	-1	-1
> CCOc1ccc(-c2nnc(SCC(=O)NC(C)(C)C)nc2-c2ccc(OCC)c(OC)c2)cc1OC
    -4	3	i	-1	2	1	2	13
> O=C(COc1ccc(C(=O)O)cc1)Nc1cccc(C(F)(F)F)c1
    -8	-3	i	-8	x	-3	2	x
> O=C1OC2(O)C3C4C=CC(C4)C3C(=O)N2c2ccccc21 (configuration not stated)
    10	-8	i	-2	-1	-1	2	x
> CCCn1c(SCC(=O)Nc2cccc(C(=O)OCC)c2)nnc1-c1ccoc1C
    -10	x	i	-2	6	-6	-14	-44
> COc1cc(C(=O)OC(C)CN2CCCCC2)cc(OC)c1OC (configuration not stated)
    -5	-13	i	-2	-17	0	-3	-22
> O=C(NCCSc1ccc(Br)cc1)c1ccccc1
    -9	8	i	-3	-3	-2	-3	x
> O=C(c1csc(Nc2cccc3ccccc23)n1)N1CCCC1
    11	-84	i	7	-10	9	-9	-23
> CN(CC(=O)Nc1cc(S(=O)(=O)N2CCCC2)ccc1Cl)Cc1cccs1
    -10	31	i	x	-4	x	-3	x
> CCN(CC)S(=O)(=O)c1ccc(Cl)c(C(=O)OC)c1
    0	x	i	-5	6	2	-16	x
> CCOC(=O)c1ccc(-n2ncc(C(=O)OCC)c2N)cc1
    -1	x	i	3	-2	-6	2	-31
> O=C(O)C[C@H]1c2cc(F)ccc2S(=O)(=O)N1C1CCCCC1
    x	-19	i	-1	-4	1	x	-19
> Cc1cc(C)c(S(=O)(=O)N(CC(=O)N2CCCC2)C2CCCCC2)c(C)c1
    -5	-18	i	-9	-13	-12	-15	-5
> CC(=O)c1ccc(NC(=O)CNC2CCCCC2)cc1
    13	2	i	3	-6	1	11	-6
> Cc1cccc(N2CCN(C(=O)c3ccccc3NC(=O)C3CCCCC3C(=O)O)CC2)c1 (configuration not stated)
    -9	2	i	-2	x	-3	-2	2
> C[C@@H]1CN([C@@H](C)CO)C(=O)CCCn2nncc2CO[C@@H]1CN(C)S(=O)(=O)c1ccccc1
    x	-24	x	0	x	7	x	-6&-3
> Cn1nnnc1SCc1ccccc1F
    -3	-19	i	5	-12	-1	-9	-17
> CN(CC(=O)Nc1ccccc1F)Cc1cccs1
    0	-3	i	-3	-13	0	5	x
> COc1cc2c(cc1NC(=O)CN1CCN(S(=O)(=O)c3ccccc3F)CC1)oc1ccccc12
    -2	x	i	0	-5	5	-4	-11
> c1ccc(-c2nc3cccnc3nc2-c2ccccc2)cc1
    x	5	i	0	-19	-1	x	x
> CNC(=O)c1cn2c3c(ccc(Cl)c3c1=O)OC(C)C2 (configuration not stated)
    x	-12	x	5	x	4	x	-13
> COc1ccccc1N1CCN(C(=O)COc2cc(C)cc3oc(=O)cc(C)c23)CC1
    1	1	i	3	-1	-5	49	-11
> COc1ccc(/C=C/C(=O)OCC(=O)NCCC2=CCCCC2)cc1S(=O)(=O)N1CCOCC1
    2	8	i	4	-1	-3	-4	x
> CC(C)C(=O)NNC(=O)CN1CCN(c2nc(-c3ccccc3)cs2)CC1
    -12	15	i	2	6	-3	-6	9
> Cc1ccccc1-n1c(SCC(=O)Nc2c(C)cccc2C)nc(O)cc1=O
    -10	7	x	2	4	4	6	1
> COc1ccc(Cl)cc1NC(=S)N(Cc1ccc(C(=O)O)cc1)Cc1ccc(OC)c(OC)c1
    -19	8	i	-8	-7	-4	-13	x
> O=C(Nc1ccccc1)C(Cc1ccccc1)NC(=O)C12CC3CC(CC(C3)C1)C2 (configuration not stated)
    5	x	i	-2	-6	1	2	x
> N#C/C(C(=O)N1CCOCC1)=C1/SC(Cc2ccc(F)cc2)C(=O)N1c1ccccc1 (configuration not stated)
    -8	22	i	-7	-10	0	6	x
> COc1ccc(/C=N/n2cnn(Cc3ccccc3Cl)c2=S)cc1OC
    8	9	i	4	4	-5	3	x
> O=CC1=C(c2ccccc2)Oc2ccccc2O1
    0	-7	i	-1	62	-9	0	-20
> COc1cccc(-c2nc(OC(C)C)c3ccccc3n2)c1
    2	x	i	1	27	1	-7	-21
> CCc1ccc2nc(Nc3ncc(C(C)=O)c(C)n3)nc(C)c2c1
    0	-3	i	2	-9	1	-7	x
> c1ccc2c(c1)ncn2-c1ccc(-c2ccnc(-c3ccncc3)n2)cc1
    -26	x	i	-8	2	-8	-25	-13
> CCOc1ccc2nc(NC(=O)C(NS(=O)(=O)c3cccs3)C(C)C)sc2c1 (configuration not stated)
    -4	x	i	-22	35	-21	2	-5
> Cc1nc2ccc(S(=O)(=O)c3ccc4nc(C)[nH]c4c3)cc2[nH]1
    -3	x	i	1	0	3	-5	14
> C[C@H](CO)N1C[C@H](C)[C@@H](CN(C)S(=O)(=O)c2ccccc2)Oc2ccc(NC(=O)C3CCCCC3)cc2C1=O
    x	-38[16.7 µM]	x	-4	x	-1	x	22&-11
> CCCCCn1cnc2c(=S)nc(N)[nH]c21
    6	-3	i	2	x	2	-7	-15
> O=C(CN1CCN(Cc2ccccc2)CC1)c1ccccc1
    -2	x	i	12	-19	1	10	-7
> O=[N+]([O-])c1cc(-c2ncccn2)c([N+](=O)[O-])s1
    -10	-60	i	11	u	12	21	-19
> COc1ccc(OC)c(-c2nc(CN(C)C(C)c3ccncn3)c(C)o2)c1 (configuration not stated)
    -2	9	i	-1	4	-1	-2	-8
> COC(=O)c1scc(C)c1N1C(=O)c2ccccc2C1=O
    -2	-3	i	3	-1	-5	1	-4
> c1ccc(CCCN2CCN(c3ccccc3)CC2)cc1
    3	-9	i	-2	18	-1	4	-6
> CCO[C@H]1OC(C(=O)Nc2ccccc2)=C[C@@H](c2csc3ccccc23)[C@@H]1CCCO
    0	1	+	-7	2	-10	3	-14
> COC(=O)Cn1c(C(=O)N2CCCC2)cc2c1C[C@H]1CN(C(=O)c3ccccc3)[C@@](Cc3ccc(F)cc3)(C(=O)OC)[C@@H]21
    -6	-12	x	-4	-14	-2	-6	-9
> COc1ccc(Cl)c(NC(=O)C/C(C)=N/NC(=O)CCc2ccccc2)c1
    0	-4	i	-4	x	-10	1	-14
> O=C(COC(=O)COc1ccccc1)Nc1cccc([N+](=O)[O-])c1
    9	4	i	1	6	0	-13	x

Going on with the list:
Value order – PABP FP inh	Env fusion inh	Rce1 inh	MT1-MMP act inh	CSC inhib	MT1-MMP act inh RFP	eIF4H inh	Yeast UUG start
> O=c1ccc2c([nH]1)CCCCCCCCCC2
    12	56*	i	-8	20	-8	-7	-7
> Cc1sc(-c2ccccn2)nc1OC(=O)c1ccc(F)cc1F
    3	3	i	-2	-13	4	10	x
> CC(=O)NC(CC(=O)N(Cc1ccccc1)c1ccc(C)cc1)c1ccccc1 (configuration not stated)
    1	x	i	-4	14	-2	7	-9
> CCN1CCN(CCOc2ccc(Br)cc2C)CC1
    12	2	i	1	51	5	2	x
> O=C(NCc1ccccn1)c1ccc(Cl)c(S(=O)(=O)N2CCCCC2)c1
    1	10	i	-3	6	-5	1	x
> Cc1ccccc1Cn1c(C)c(C(=O)N(C)Cc2ccc(F)cc2)sc1=O
    x	u	x	3	x	-4	x	-18
> COc1cc(C(=O)O/N=C(\N)c2cccc([N+](=O)[O-])c2)cc(OC)c1OC
    -1	-49	i	7	-4	-4	-3	-10
> Cn1nc(C2CC2)cc1NC(=O)C1(C)CCN1C(=O)c1ccccc1CCc1ccccc1 (configuration not stated)
    x	64*	x	-2	x	-3	x	-35
> O=C(NCc1cccs1)c1cc(S(=O)(=O)N2CCOCC2)c(Cl)cc1Cl
    -2	-10	i	6	-5	-3	-6	-8
> Cc1nc(NC(=O)CCc2ccccc2)ccc1Br
    3	-122	i	-12	2	-12	14	-12
> Cc1ccc(C)c(NC(=O)CCCCCCCCCCC2COCCO2)c1 (configuration not stated)
    0	14	i	-2	-1	-1	-11	-20
> CCOC(=O)CN/C=C(\C#N)c1ccccc1
    6	13	i	-2	-4	3	-3	x
> COc1ccccc1C(=O)Nc1nc2ccccc2[nH]1
    -2	73*	i	-11	95*	-3	-9	-95
> Cc1nn(C)c(Oc2ccccc2)c1CCNC(=O)C(C)(C)C
    -4	-13	i	2	-3	1	-7	x
> COc1cccc(N(CC(=O)NC2CCCCC2)C(=O)CCCC(=O)Nc2ccccn2)c1
    -3	-11	i	0	-9	-1	1	-9
> Cc1cc(C)n2cc(CSc3nnc(N)s3)nc2n1
    2	x	i	0	-19	-1	-4	-32
> CCN1/C(=C\C=C2\C(=O)N(c3ccccc3)C(=S)N2C)Sc2ccccc21
    -8	15	i	39*	x	36*	10	x
> Cc1ccccc1NC(=O)C(C#N)Cc1cccnc1 (configuration not stated)
    -2	-3	i	-6	5	-3	-12	-12
> O=C(Nc1ccc(Cl)cc1C(=O)Nc1ccc(Br)cn1)c1ccco1
    -3	5	i	-11	x	-6	-7	-7
> Cc1nccn1CCCNC(=O)CC1C(=O)NCCN1Cc1ccc(Cl)c(F)c1 (configuration not stated)
    13	14	i	-4	16	-1	2	1
> COCc1nnc(NC(=O)c2cc3ccccc3o2)s1
    9	-4	i	3	-8	2	11	-23

Compound activity from PubChem.

Only part of the results is shown; the hit share may differ from the screen's.
